# HSD17B inhib: qHTS Assay for Inhibitors of HSD17B4, hydroxysteroid (17-beta) dehydrogenase 4. 3-hydroxyacyl-CoA dehydrogenase type-2 (Homo sapiens), Q99714. recombinant HSD17B10, NADH fluorescence kinetic; many of its hits are not listed in these tables. Potency, µM (series often up to 57.1 µM), for inactives: top-dose activity change, negative = inhibition, usual class: inhibitors. 7.6% of 75,000 active. AID 893, 2007; active = well fitted inhibition curve with a large enough effect; inconclusive = small, poorly fitted or top-dose-only effect; inactive = no such curve, though single readings can be large or run the other way;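 also: the protocol describes HADH2 (HSD17B10) and not the HSD17B4 of the title; nearly all actives have a fitted effect of over 70% in size; most hits overshoot -100% by far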
#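 20 nM HADH2, pH 9.0 Tris/Tween; cpd preinc 15 min RT; start w/ 1 mM NAD+ + 90 uM b-hydroxybutyryl-CoA; kinetic fluor ex360/em450 q30s x 4 min; delta last-first.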
# * marks the source's active call; other numbers are inactive results; ? = inconclusive; [ ] = dose if it differs, or a comment. % is scaled to controls: 0 for no effect and ±100 for the full control effect; potency is read from the fitted curve at half-maximal effect. An excerpt; rates above refer to the full screens.
Molecule,HSD17B inhib
Cc1ccc(-c2nnn(CC(=O)N(c3ccccc3F)C(C(=O)NC3CCCC3)c3ccco3)n2)o1 (stereo not drawn),2%
COc1ccc(C2=NOC(C(=O)N3CCOCC3)C2)cc1OC (stereo not drawn),3%
CCOC(=O)SC1=N/C(=C\c2ccc(N(C)C)cc2)C(=O)S1,-12%
O=C(NCc1ccccc1Cl)C1CCN(S(=O)(=O)N2CCC3(CC2)OCCO3)CC1,7%
CCSc1nnc2c(n1)OC(C)(C)Nc1ccccc1-2,3%
CC(=O)N(c1c(C)n(C)n(-c2ccccc2)c1=O)C1(C(=O)NC2CCCC2)CCCCC1,-6%
COCCNc1ncnc2ccc(-c3cccc(NS(C)(=O)=O)c3)cc12,-24%
Nc1cccc(-n2nncc2-c2ccc(Cl)cc2)c1,-8%
Cc1ccccc1S(=O)(=O)Cc1ccc(C(=O)NCCN2CCCCC2C)o1 (stereo not drawn),6%
Cc1nn2c(-c3cccc(NC(=O)CSc4nc5ccccc5o4)c3)nnc2c2ccccc12,-3%
CCN1CCCC1CNC(=O)c1csc2c1CCCC2 (stereo not drawn),3%
O=C(CN1CCOCC1)Nc1cccc(Cl)c1Cl,7%
COC(=O)c1cccc(OCC(O)Cn2cnc3cc(C)c(C)cc32)c1 (stereo not drawn),7%
CC1CN(C(=O)N2c3ccccc3Sc3ccccc32)C(C)CC1=O (stereo not drawn),-4%
CC(=O)N(CCc1ccccc1C)Cc1cc2cc3c(cc2[nH]c1=O)OCO3,10µM*

# 2 of the compounds above, with each value named:
canonical_smiles: CC1CN(C(=O)N2c3ccccc3Sc3ccccc32)C(C)CC1=O (stereo not drawn)
  HSD17B inhib = -4%

canonical_smiles: CC(=O)N(CCc1ccccc1C)Cc1cc2cc3c(cc2[nH]c1=O)OCO3
  HSD17B inhib = 10µM*

# Following part:
Molecule,HSD17B inhib
COc1ccc(OC)c(N(CC(=O)Nc2ccccc2)S(C)(=O)=O)c1,0%
Cc1cc(Nc2ccc3c(c2)OCCO3)n2nc(C)nc2n1,4%
CCc1nnc(NC(=O)CSc2nnc(-c3c[nH]c4ccccc34)n2CCOC)s1,3%
COc1ccc2c(CC(=O)Nc3ccc(OC)c(NS(=O)(=O)c4ccc(F)cc4)c3)coc2c1,?
CN1C(=O)Cc2cc(S(=O)(=O)N3CCOCC3)ccc21,-5%
O=c1nc(-c2ccccc2)n(-c2ccccc2)c2ncccc12,4%
CCOC(=O)C1CCN(C(=O)CCc2nc3ccccc3[nH]2)CC1,-1%
CCCc1nc2c(sc3nc4c(cc32)COC(C)(C)C4)c(=O)n1Cc1ccco1,?
C[C@@H](CN(C)C)CN1c2ccccc2CCc2ccccc21,-4%[25.6 µM]
CCc1nnc(NC(=O)Cn2ccc(C(F)(F)F)n2)s1,0%
CC(=O)N1CCc2cc(Br)cc(S(=O)(=O)NCc3ccccn3)c21,3%
Cc1ccc2c(c1)nnn2C1CCN(CC(=O)NCCc2ccccc2)CC1,-9%
CCOC(=O)C(C)Oc1cccc2c(=O)n(CC(=O)NCc3ccc4c(c3)OCO4)ccc12 (stereo not drawn),-26%
CC1(C)NC(=O)N(CC(O)CN2CCOCC2)C1=O (stereo not drawn),7%
COC(=O)COc1ccc2oc(=O)cc(C)c2c1,?

# (more compounds)
Molecule,HSD17B inhib
CCCn1c(=O)c(C(=O)Nc2nnc(CC)s2)c(O)c2ccccc21,10%
O=C1N(CN2C(=O)C3(OCCO3)c3ccccc32)c2ccccc2C12OCCO2,-4%
Cc1c(C(=O)N2CCCCC2)sc(NC(=O)C2CC2)c1C#N,4%
Cn1c(SCC(=O)N2CCOCC2)nnc1-c1cnccn1,6%
O=C(CN1CCOc2ccccc21)NC1CCCCCCC1,0%
CC(C)(C)c1ccc(OCC(=O)NCc2ccco2)c(Br)c1,6%
COC(=O)Nc1ccc(C)cc1NC(=O)OC,-3%
c1ccn2cc(CSc3nnc4ccccn34)nc2c1,5%
COc1ccc(C2c3c(-c4cc(Cl)c(C)cc4O)n[nH]c3C(=O)N2Cc2cccnc2)cc1OC (stereo not drawn),5%
Cc1ccc(C)c(NC(=O)Cn2nnc(C(=O)Nc3c(C)cccc3C)c2N)c1,-4%
Cc1nc2ccccn2c1C(=O)c1ccccc1,0%
COc1ccc(C(F)(F)F)cc1NC(=O)c1nc2nc(C)cc(C(F)F)n2n1,4µM*
CCOC(=O)c1ccc(-c2n[nH]c(=O)c3ccccc23)cc1,5%
Cc1c(C(=O)N2CCN(c3ccccn3)CC2)oc2ccccc12,?
COC(=O)CSc1ccc2nnc(-c3ccc(F)cc3)n2n1,32µM*

# The final five records of the section before are carried over, then new ones follow:
Molecule,HSD17B inhib
Cc1nc2ccccn2c1C(=O)c1ccccc1,0%
COc1ccc(C(F)(F)F)cc1NC(=O)c1nc2nc(C)cc(C(F)F)n2n1,4µM*
CCOC(=O)c1ccc(-c2n[nH]c(=O)c3ccccc23)cc1,5%
Cc1c(C(=O)N2CCN(c3ccccn3)CC2)oc2ccccc12,?
COC(=O)CSc1ccc2nnc(-c3ccc(F)cc3)n2n1,32µM*
COc1ccccc1N1C(=O)CC(Nc2ccc(N3CCOCC3)cc2)C1=O (stereo not drawn),-10%
CCn1c(COc2ccccc2C)nnc1SCC(=O)NC1CCCC1,0%
Cc1ccc(-n2c(N)c(C(=O)N3CCOCC3)sc2=S)c(C)c1,-21%
CCOC(=O)c1ccc(NC(=O)CSc2nnc(CNC(=O)c3c(F)cccc3Cl)o2)cc1,-1%
N#CCCn1c(SCC(=O)NCC2CCCO2)nc2ccccc21 (stereo not drawn),?
CCOCCCNC(=O)C1CCN(C(=O)N(C)C)CC1,-4%
Cc1nc2nc(COc3ccccc3)[nH]n2c(=O)c1C,10%
CCc1cc2c3c(c(=O)oc2cc1OC)CCCC3,32µM*
NC(=O)C1CCN(C(=O)CN2CCN(c3cccc(C(F)(F)F)c3)CC2)CC1,-3%
CCOC(=O)c1c(C)oc2c1c(C(c1cccnc1)N1CCN(C)CC1)c(O)c1ccccc12 (stereo not drawn),-6%
CCCCOC(=O)Nc1nc2ccc(OC)cc2s1,-5%
O=C(NCc1ccco1)c1cc(-c2cccnc2)nc2ccccc12,-11%
COc1cc(C(=O)NCC(=O)OCC(=O)c2ccc[nH]2)cc(OC)c1OC,-9%
O=C(CSc1nnc(-c2cccs2)o1)OCc1ccccc1,239%[activator]
CCOC(=O)c1sc2nc(N3CCOCC3)c3c(c2c1N)CCN(C)C3,13µM*

# Single entries from the results shown.
# CCc1cc2c3c(c(=O)oc2cc1OC)CCCC3 @ HSD17B inhib: 32µM*
# NC(=O)C1CCN(C(=O)CN2CCN(c3cccc(C(F)(F)F)c3)CC2)CC1 @ HSD17B inhib: -3%

# Next section.
Molecule,HSD17B inhib
Cc1sc(NC(=O)CSc2nnc(C)c(=O)[nH]2)c(C#N)c1C,-24%
COC(=O)c1nn(-c2c(C)n(C)n(-c3ccccc3)c2=O)cc1O,6%
COc1ccc(N2CCN(C(=O)c3ccc(NS(=O)(=O)c4cccc(F)c4)cc3)CC2)cc1,6%
O=C(CCCn1c(=O)[nH]c2ccsc2c1=O)N1CCN(Cc2ccc3c(c2)OCO3)CC1,-8%
O=C(CCCOc1ccc(Cl)cc1)N1CCOCC1,4%
Cc1ccc(NC(=O)C2CCCN2S(=O)(=O)c2cccc3cccnc23)cc1F (stereo not drawn),-4%
CCNS(=O)(=O)c1ccc(NC(=O)Cc2ccc(F)cc2)cc1,7%
N#Cc1ccc(CSc2nnc(-c3ccncc3)n2CCc2ccccc2)cc1,-7%
Cc1ccc(S(=O)(=O)N2CCN(C(=O)CN3CCN(C)CC3)C2)cc1,3%
Cc1cc(NC(=O)NC(=O)c2cccc(OC(F)(F)C(F)F)c2)n[nH]1,5%
CCOC(=O)c1cccc(NC(=O)C2CCCO2)c1 (stereo not drawn),8%
CC1(C)CCC[C@]2(C)C3CC(=O)O[C@@]3(C)CC[C@H]12 (stereo partly drawn),-5%
Nc1nc2c(ncn2[C@@H]2C=C[C@@H](CO)C2)c(=O)[nH]1,-3%[11.4 µM]
Cc1nc2c(C(=O)N3CCN(c4ccccn4)CC3)cnn2c(C)c1Cc1cccc(Cl)c1,-2%
CCOC(=O)N1CCN(S(=O)(=O)c2ccc(C(=O)Nc3nc4ccccc4s3)cc2)CC1,25µM*

# Next compounds follow:
Molecule,HSD17B inhib
COC(=O)[C@H](C)NC(=O)Nc1ccc(OC)c(OC)c1,10%
COc1ccc(CCn2c(N)cc(=O)[nH]c2=S)cc1OC,-7%
Cn1c(=O)cnc2cnc(OCc3ccccc3)nc21,-6%
O=C(NCc1ccco1)NCC(F)(F)F,15%
CCC(=O)c1ccc(OCC(O)CN2CC(C)OC(C)C2)cc1 (stereo not drawn),1%
CCn1ncc(C2=NOC(C(=O)Nc3cnn(C45CC6CC(CC(C6)C4)C5)c3)C2)c1C (stereo not drawn),0%
O=C(CSc1ncn[nH]1)Nc1nc(-c2ccccc2)ns1,5%
Cc1c(N2C(=O)c3ccc4c5c(ccc(c35)C2=O)CC4)c(=O)n(-c2ccccc2)n1C,20µM*
CCc1ccccc1NC(=O)c1nnn(CC(=O)Nc2cccc(C)c2)c1N,?
C=CCOC(=O)C1=C(C)N=C2SCCC(=O)N2C1c1ccc(OC(=O)c2ccco2)cc1 (stereo not drawn),-25%
CCC1(C)Cc2ccccc2-c2nc3n(c(=O)c21)CC(C(=O)O)S3 (stereo not drawn),25µM*
O=C(COc1ccc(S(=O)(=O)NCc2ccccc2)cc1Cl)N1CCOCC1,5%
CCOc1ccc2cc(C#N)c(SCC(=O)N3CCC(C)CC3)nc2c1,25µM*
O=c1c(Cc2ccccc2O)c(O)nc2n1CCCS2,-9%
CCOC(=O)N1CCN(C(=O)c2ccc3c(=O)n(CCc4ccccc4)c(=S)[nH]c3c2)CC1,3%

# Next records follow:
Molecule,HSD17B inhib
CCN1C(=O)c2cccc3c(NC(=O)c4cccc(N5C(=O)CCC5=O)c4)ccc1c23,5%
CCC(=O)N1CCc2cc(Br)cc(S(=O)(=O)NCCN3CCCCC3C)c21 (stereo not drawn),8%
CCOc1ccccc1C1NC(=O)NC(C)=C1C(=O)OC1CCCCC1 (stereo not drawn),14%
COC(=O)C1CCN(S(=O)(=O)c2c(C)n(C)c(=O)n(C)c2=O)CC1,-1%
CCN1C(=O)[C@@H]2[C@H]3C(=CC[C@@H]2C1=O)C1(OCCCO1)[C@H]1O[C@@H]1[C@H]3O,-22%[11.4 µM]
O=C(Cc1ccccc1)CC1(O)C(=O)Nc2ccccc21 (stereo not drawn),15%
COc1ccc(-n2c(N)c(-c3nc4ccccc4n3C)sc2=S)cc1,-7%
COc1cccc(C(=O)Nc2ccc(S(=O)(=O)NCc3ccco3)cc2)c1,4%
CCOC(=O)c1c(CN2CCOCC2)oc2ccc(OC)cc12,-10%
Cc1cc(OCCCC(=O)N2CCCCC2)cc(C)c1Cl,0%
COc1ccc(NC(=O)COC(=O)c2ccc(N3CCCC3=O)cc2)cc1OC,5%
CCC1=C(OC(=O)N(CC)CC)N2C(=O)OC(=NCCOC)[C@]2(Cc2ccccc2)[C@H]2C1=CC[C@H]1C(=O)N(CC)C(=O)[C@H]12,-7%
COc1ccc(NC(=O)CCCN2C(=O)C3C4C=CC(C4)C3C2=O)c(OC)c1 (stereo not drawn),6%
CC(=O)N(c1ccc(C)cc1)C1C=CS(=O)(=O)C1 (stereo not drawn),10%
N#C[C@@H](N=Nc1ccccc1C(=O)O)C(N)=O,0%[11.4 µM]

# Further structures follow:
Molecule,HSD17B inhib
COc1ccc(-c2nc(SCC(=O)N3CCOCC3)n[nH]2)cc1,8%
CCSc1nnc(NC(=O)c2cccnc2)s1,-1%
CN1C(=O)N(C)C2(c3ccccc3)Nn3c(s/c(=C/c4ccco4)c3=O)=NC12c1ccccc1 (stereo not drawn),?
CC(C)N=C(N)/N=C(\N)Nc1ccc(Cl)cc1,0%[25.6 µM]
Cc1cnc(-c2nnc(N(C)C(=O)C3CCOC3)s2)cn1 (stereo not drawn),25µM*
Cc1cc(C)nc(NC2=NCC(=O)N2c2ccc(F)c(Cl)c2)n1,1%
O=c1cc(-c2ccccc2)[nH]c2nc(Cl)ccc12,7.9µM*
O=C1CCCCC1Sc1nnc(Cc2cccs2)n1CCc1ccccc1 (stereo not drawn),-10%
O=C(NC(C(=O)c1ccccc1)N1CCCCC1)c1ccccc1 (stereo not drawn),-3%
Cn1c(-c2ccc3c(c2)OCO3)cnc1NCc1ccccc1,?
CN1C(=O)C(O)(C2COC(C)(C)CC2=O)c2cc(Br)ccc21 (stereo not drawn),16%
COC(=O)c1ccc(C23CC4(C2)[C@H](CN(Cc2ccc(-c5ccccc5)cc2)[C@@H]4c2ccccc2)C3c2ccccc2)cc1 (stereo partly drawn),-4%
Cn1cc(C(=O)c2ccc(Cl)cc2)cc1-c1nc2ccccc2n1C,?
Cc1cnc(NC(=O)C(C)N2C(=O)C3CC=CCC3C2=O)s1 (stereo not drawn),3%
O=c1[nH]cnc2cc(Cl)ccc12,-19%
COc1ccccc1-c1nc(SCC(=O)O)n[nH]1,-15%
N#Cc1nc(-c2ccc(OCc3ccc(Cl)cc3)cc2)oc1N1CCOCC1,1%
Cc1cc(NC(=O)Cn2cnc3sc(C)c(-c4ccccc4)c3c2=O)no1,-3%

# Screening results from PubChem.
